# Jurkat tox 60K – cytotoxicity toward Jurkat cells | inhibition, % at 4 µM | AID 463 | Jurkat E6.1 viability, ATP luminescence, 48 h | 56,000 tested, 1.2% active;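 active = inhibition above the mean inhibition of all tested compounds plus 3 SD, cut at about 28% in these data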
# SF-1 act – activators of human nuclear receptor SF-1. activation, % at 10 µM. 65,000 tested, 1.9% active. CHO-K1 Gal4-SF-1 LBD luciferase reporter; % increase over DMSO SF-1-specific signal. AID 522. Q13285;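 active = activation above the mean activation of all tested compounds plus 3 SD, cut at about 50% in these data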
#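 Compound – one dose, 10 µM compound, 1% DMSO · Test system – transient Gal4-SF-1 LBD reporter, CHO-K1 · Input – 4,000 cells in each well · Read-out basis – percent activation relative to DMSO median and mock-transfected background · Replicates – single measurement per compound · Technique – steady-glow luciferase luminescence, read after 15 min reagent incubation · Timing – 20 h compound treatment, 37 °C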
# HEK293 NFkB inh – inhibitors of the PMA/ionomycin-induced NF-kB reporter in HEK293 cells. inhibition, % at 3 µM. AID 465. HEK-293 NF-kB luciferase reporter, luminescence. 62,000 tested, 0.21% active;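 active = inhibition above the mean of all tested compounds plus 3 SD, cut at about 40% in these data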;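 note: 0% = stimulated DMSO wells and 100% = 10 µM reference inhibitor 5653914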
#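 Timing: 1 h pretreatment, 16 h stimulation, 37 °C; system: HEK-293 cells with stable firefly luciferase reporter driven by four HIV NF-kB elements; doses: 3 µM once, 0.30% DMSO; measured by: luciferase luminescence; control set: DMSO and 10 µM reference inhibitor; repeats: single test; reagent: PMA plus ionomycin mix as NF-kB-activating stimulus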
# tolC growth inh – growth inhibitors of E. coli BW25113 tolC mutant | 65,000 tested, 2.2% active | OD615 | growth inhibition, % at 10 µM (by protocol) | AID 573;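 active = growth inhibition at or above a cutoff equal to the mean over every tested compound plus 3 SD, cut at about 60% in these data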;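 note: growth measured after 20 h incubation at 37 °C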
#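 Test system – E. coli BW25113 ΔtolC::kan, tolC deletion mutant strain · Detection – OD at 615 nm · Buffer or medium – LB with kanamycin 50 µg/mL · Times – 20 h compound exposure of bacteria at 37 °C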
# TNAP act mid DEA – activates human TNAP at intermediate phosphate acceptor concentration; purified TNAP, CDP-star luminescence, 100 mM DEA, 30 min; stronger effect = higher value; scale: 0 levamisole-inhibited, 1 vehicle-only enzyme; activation factor at 20 µM; AID 813; P05186; 64,000 tested, under 10 active;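 active = activation factor of at least 2 at 20 µM, relative to controls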
# * = called active by the depositor; . = not tested or not shown; & = joins results of further samples.
1: C#CCN(C)C(C)Cc1ccccc1 (centres undefined)
2: CN1C[C@H](CNC(=O)OCc2ccccc2)C[C@@H]2c3cccc4c3c(cn4C)C[C@H]21
3: [N-]=[N+]=CC(=O)OC[C@H](N)C(=O)O
4: CCC(C)NC(=O)c1c(N)n(CCCOC)c2nc3ccccc3nc12 (centres undefined)
5: COc1ccc2c(c1)CC1(CN2C)C(=O)NC(=O)N(c2ccc(C)cc2)C1=O (centres undefined)
6: NCC(CC(=O)O)c1ccc(Cl)cc1 (centres undefined)
assay / compound	1	2	3	4	5	6
Jurkat tox 60K	.	.	.	3.3	5.6	.
SF-1 act	0.1	-16.2	-0.7	9.3	13.7	1.2
HEK293 NFkB inh	.	.	.	5.8	-3.3	.
tolC growth inh	3.9	11.3	6.3	28.8	-3.2	-22.4&-9.8
TNAP act mid DEA	0.9	0.9	0.9	1	0.9	0.9

# Along the list, quoted from above.
# Nos. 1–6 in SF-1 act: 0.1, -16.2, -0.7, 9.3, 13.7, 1.2

# Reprinted, nos. 5–6
5: COc1ccc2c(c1)CC1(CN2C)C(=O)NC(=O)N(c2ccc(C)cc2)C1=O (centres undefined)
6: NCC(CC(=O)O)c1ccc(Cl)cc1 (centres undefined)
assay / compound	5	6
Jurkat tox 60K	5.6	.
SF-1 act	13.7	1.2
HEK293 NFkB inh	-3.3	.
tolC growth inh	-3.2	-22.4&-9.8
TNAP act mid DEA	0.9	0.9

# Additional compounds.
7: CN1C2C=C(N(C(=O)c3ccc(Cl)cc3)c3ccccc3)CC1CC2 (centres undefined)
8: CC(C)OC(=O)C1C(=O)NC2(C)CC1c1ccccc1O2 (centres undefined)
9: COc1ccc(Cc2nccc3cc(OC)c(OC)cc23)cc1OC
10: CN1[C@@H]2CC[C@H]1CC(OC(=O)C1C=Nc3ccccc31)C2 (some centres undefined)
assay / compound	7	8	9	10
Jurkat tox 60K	4.9	.	.	.
SF-1 act	6.7	1.0	-36.4	7.0
HEK293 NFkB inh	7.3	8.4	.	.
tolC growth inh	-23.1	-6.6	6.8	5.7
TNAP act mid DEA	1	0.9	0.9	0.9

# Two records picked at random from those above:
6: NCC(CC(=O)O)c1ccc(Cl)cc1 (centres undefined)
8: CC(C)OC(=O)C1C(=O)NC2(C)CC1c1ccccc1O2 (centres undefined)
assay / compound	6	8
Jurkat tox 60K	.	.
SF-1 act	1.2	1.0
HEK293 NFkB inh	.	8.4
tolC growth inh	-22.4&-9.8	-6.6
TNAP act mid DEA	0.9	0.9

# Not all compounds are listed. The share of hits here may be higher or lower than overall.
